Compound activity from PubChem.
VACV Venus inh – inhibitors of vaccinia virus (Venus reporter) | Vaccinia virus Venus reporter expression, fluorescence | Potency, µM (titrated, usually from 36.5 µM), for inactives: at the top dose activity change, negative = inhibition, usual class: inhibitors | actives 0.46% (n = 330,000) | AID 720580; active means well fitted inhibition curve with a large enough effect; inconclusive means small, poorly fitted or top-dose-only effect; inactive means no such curve, though single readings can be large or run the other way; tested in A549 cells; also: nearly all actives have a fitted effect of over 30% in size; inactives centre near -10
Vaccinia mCherry – vaccinia inhibition (mCherry reporter). AID 720579. actives 0.63% (n = 310,000). Potency, µM (highest dose often 36.5 µM), inactives show at the top dose activity change, negative = inhibition, actives largely listed as inhibitors. Vaccinia virus mCherry reporter infection, fluorescence; about a quarter of the inactives have no number; active = well fitted inhibition curve with a large enough effect; inconclusive = small, poorly fitted or top-dose-only effect; inactive = no such curve, though single readings can be large or run the other way; tested in A549 cells; also: nearly all actives have a fitted effect of over 35% in size; inactives centre near -10
Starred values were filed as active, the others as inactive; i = inactive; u = inconclusive; x = no result given; & = joins results of further samples; [ ] = dose if it differs, or a comment. % is scaled to controls: 0 for no effect and ±100 for the full control effect; potency is read from the fitted curve at half-maximal effect.

Start of the data: the first two compounds, to show the layout:
SMILES | VACV Venus inh | Vaccinia mCherry
CCN(CC)c1ccc(/C=N/NC(=O)Nc2nonc2N)cc1 | -12.1% | -17.5%
COc1ccc(NS(=O)(=O)c2ccc(N/N=C/c3ccc(N4CCOCC4)cc3)c([N+](=O)[O-])c2)cc1 | 3.7% | -6.9%

The listing, from the start:
SMILES | VACV Venus inh | Vaccinia mCherry
CCN(CC)c1ccc(/C=N/NC(=O)Nc2nonc2N)cc1 | -12.1% | -17.5%
COc1ccc(NS(=O)(=O)c2ccc(N/N=C/c3ccc(N4CCOCC4)cc3)c([N+](=O)[O-])c2)cc1 | 3.7% | -6.9%
O=C(NCC(=O)N(c1ccc2c(c1)OCO2)C(C(=O)NC1CCCC1)c1cccs1)c1ccco1 (stereo not given) | -14.6% | i
O=C(Nc1cccc2c1CCCC2)c1ccccc1F | -10.4% | -19.2%
Cc1ccc(S(=O)(=O)Nc2ccc(Nc3ccccc3)cc2)cc1 | -9.4% | u
O=C(Cc1ccccc1)N1CCc2[nH]nc(-c3ccccc3)c2C1 | -21.2% | -27.8%
COc1ccccc1C(CC(=O)Nc1ccc(Cl)cc1)c1ccc(OC(C)C)cc1 (stereo not given) | -14.6% | -11.8%
C=CCC1CCCCC1=C(C#N)c1ccccc1 (stereo not given) | -1.9% | i
Cc1nn(C)c2c1c(C(F)(F)F)cc(=O)n2CC(=O)NC(C)(C)C | 2.7% | 0.2%
CCNc1cc(N2CCN(C3CCCCC3)CC2)c2noc3c2c1C(=O)c1ccccc1-3 | 67.2%[activator] | -7.0%
COc1cccc(CNC(=O)CCNC(=O)N2CC(=O)Nc3ccccc32)c1 | -10.7% | i
CCOC(=O)C1CCN(C(=O)c2cc(CN3C(=O)c4ccccc4C3=O)ccc2OCC)CC1 | 11.8% | -0.6%
Cc1ccc(Cl)cc1N1CCN(C(=O)Cn2nc(C)c3sc4ccccc4c3c2=O)CC1 | -9.2% | -14.8%
Cc1ccc(C(=O)Nc2ccccc2C(=O)NCc2cccnc2)cc1 | -24.7% | -18.8%
CCc1ccc(-c2nnn(CCC#N)n2)cc1 | -12.7% | i
O=C(CN1C(=O)NC2(CCOc3ccccc32)C1=O)Nc1cccc(Cl)c1 (stereo not given) | -19.2% | -12.5%
O=C(N/C(=C\c1cccs1)C(=O)N1CCOCC1)c1cccs1 | -13.1% | -1.1%
COc1ccc(N=c2sc3ccccc3n2C)cc1 | 1.7% | i
O=C(OCc1ccccc1)C1=NNC2C(=O)N(c3ccccc3)C(=O)C12 (stereo not given) | 1.3% | -10.5%
CCC(C)NC(=O)CSc1nc2cc3c(cc2c(=O)n1CCCC(=O)NCCc1ccc(OC)c(OC)c1)OCO3 (stereo not given) | -15.6% | -10.9%
Cc1ccc(NC(=O)CSCc2ccco2)cc1 | -7.5% | i
O=C(NCc1cccnc1)Nc1ccc(Cl)cc1 | -7.1% | i
CC(C)(C)NC(=O)c1cc(C(C)(C)C)c(O)c(C(C)(C)C)c1 | -7.1% | i
CC(=O)NC1=NN(C(C)=O)C(c2ccccc2)S1 (stereo not given) | -8.5% | i
c1ccc(N2CCN(c3nc4cc5c(cc4s3)OCO5)CC2)cc1 | -19.6% | i

Continuation.
SMILES | VACV Venus inh | Vaccinia mCherry
COC(=O)C(C#N)C(c1cccnc1)c1c(C)[nH][nH]c1=O (stereo not given) | -17.8% | i
COc1ccc(CCNC(=O)C2CCN(C(=O)c3ccccc3C)CC2)cc1 | -15.0% | i
COc1ccc(OC)c(NC(=O)c2ccc(S(=O)(=O)N3CCOCC3)cc2)c1 | -4.7% | -10.0%
O=C(/C=C/c1ccc(F)cc1)c1ccc(N2CCOCC2)cc1 | -18.4% | i
CCCS(=O)(=O)NCc1c(C)ncc2c1CCN(C(=O)c1cccc(-c3ccccc3F)c1)C2 | 17.5% | -2.6%
O=S(=O)(c1cc(C(F)(F)F)ccc1Cl)N1CCCCCC1 | -3.5% | -4.8%
S=C=Nc1ccccn1 | 6.2% | 0.2%
CC(C)(C)C(=O)Nc1nc2c(s1)CN(Cc1ccccc1)CC2 | -6.3% | -9.2%
O=C(OCc1cc(=O)n2nc(C3CC3)sc2n1)c1ccc(NC(=O)c2ccccc2Cl)cc1 | -5.6% | u
COc1ccc(NC(=O)C2Cc3ccccc3C(=O)O2)cc1 (stereo not given) | -17.5% | -24.4%
CC(C)c1c(O)nc(SCC(=O)Nc2ccc3c(c2)CCC3)[nH]c1=O | -7.7% | -0.1%
CCn1c(SCC(=O)N2CCCCCC2)nc2ccccc2c1=O | -13.3% | -17.5%
COc1cc(/C=C/C(=O)c2ccc3c(c2)OCCO3)cc(Br)c1OCC(=O)N(C)C | u | 2.82µM*
CC1CCN(C(=O)CN2CC(C)Sc3ccccc32)CC1 (stereo not given) | 5.1% | -2.8%
Nc1ccc(SCc2cccnc2)cc1 | -11.7% | -24.6%
COc1ccc(C(=O)On2c(-c3ccc(Br)cc3)nc3ccccc3c2=O)cc1 | u | -19.2%
O=C1C(=O)N(Cc2cccnc2)C(c2ccccn2)/C1=C(/O)c1ccccc1 (stereo not given) | 2.1% | -10.5%
CCCCC(=O)Nc1ccc(NC(=O)C2CC2)cn1 | -3.2% | -4.3%
C=CC[n+]1c(C)csc1Nc1cccc(Br)c1 | -8.1% | u
CCCn1cc(S(=O)(=O)c2ccccc2)c(=O)c2cc(F)c(N3CCCC3)cc21 | -8.4% | -11.5%
CC(=O)Nc1ccc(NC(=S)NC(=O)C2CC2)cc1 | -2.6% | -4.2%
Cc1cc(N/N=C/c2ccccc2O)nc(N2CCOCC2)n1 | u | -24.4%
Cc1ccc(NC(=O)Cn2cc(C(=O)C3CC3)c3ccccc32)c(C)c1 | -8.7%&-22.5% | -5.8%
CCOC(=O)C1=C(C)N(C)C(=O)NC1c1ccc2c(c1)OCO2 (stereo not given) | -2.8% | i
Cc1cccc(C(=O)Nc2nnc(S(=O)(=O)N(C)Cc3ccco3)s2)c1 | -3.2%&-6.5% | -13.7%&-9.2%

2 compounds drawn at random from those above:
SMILES | VACV Venus inh | Vaccinia mCherry
COc1ccc(OC)c(NC(=O)c2ccc(S(=O)(=O)N3CCOCC3)cc2)c1 | -4.7% | -10.0%
CCn1c(SCC(=O)N2CCCCCC2)nc2ccccc2c1=O | -13.3% | -17.5%

Single entries from the results shown.
Under Vaccinia mCherry, CCCCC(=O)Nc1ccc(NC(=O)C2CC2)cn1 reads -4.3%
Under VACV Venus inh, CC(C)c1c(O)nc(SCC(=O)Nc2ccc3c(c2)CCC3)[nH]c1=O reads -7.7%
Under Vaccinia mCherry, CCn1c(SCC(=O)N2CCCCCC2)nc2ccccc2c1=O reads -17.5%
Under VACV Venus inh, COC(=O)C(C#N)C(c1cccnc1)c1c(C)[nH][nH]c1=O (stereo not given) reads -17.8%

Continuation:
SMILES | VACV Venus inh | Vaccinia mCherry
CCCCCNC(=O)C(c1cc2ccccc2o1)n1c(=O)c(-c2ccco2)nc2ccccc21 (stereo not given) | 0.5% | -7.0%
O=C(c1ccc2c(c1)N(Cc1cccc(Cl)c1)C(=O)c1ccccc1S2(=O)=O)N1CCCC1 | -2.6% | -6.4%
C[C@@H](O)C1NC(=O)[C@H](CCCCN)NC(=O)c2cc([N+](=O)[O-])cc(I)c2OCC[C@@H](C(N)=O)NC1=O (stereo not given in full) | -1.2% | i
Cc1cc(C)c2c(CN3CCOCC3)cc(=O)oc2c1C | -15.0% | i
Cc1cc(C)cc(-c2nnc(SCC(=O)NCC3CCCO3)o2)c1 (stereo not given) | -12.8% | i
N#CC1=C(N)N(c2ccccc2)C(c2cccc([N+](=O)[O-])c2)C1(C#N)C#N (stereo not given) | -0.2% | -12.4%
CC1CCC2C(=O)N(c3cccc(C(=O)Nc4ccc(F)cc4)c3)C(=O)C2C1 (stereo not given) | -9.6% | -6.1%
CC1(Cc2cccc(F)c2)C(=O)Nc2ccc(-c3cccnc3)cc21 (stereo not given) | u | i
COc1cc(C(=O)NC(=S)Nc2cccc3nc(C)ccc23)cc(OC)c1OC | -11.1%[7.34 µM] | -1.4%[7.34 µM]
O=C(c1ccc(CS(=O)Cc2ccc(Cl)cc2)o1)N1CCN(c2ccc(F)cc2)CC1 (stereo not given) | -21.5% | -11.7%
NS(=O)(=O)c1ccc(N/C=C\C(=O)c2ccncc2)cc1 | -2.7% | 0.4%
COc1ccc2c(c1)CC(C(=O)Nc1cc(OC)c(OC)c(OC)c1)CO2 (stereo not given) | -14.9% | -11.1%
COc1cccc(CNC(=O)CN2C(=O)N(c3c(C)cccc3C)S(=O)(=O)c3ccccc32)c1OC | -8.2% | -9.2%
O=C(CSc1nc(-c2ccccc2)no1)N1CCN(c2ccccc2)CC1 | 7.2% | 0.1%
COc1ccc(-c2cc(C(F)(F)F)n3nc(C(=O)NCc4ccco4)cc3n2)cc1OC | -24.0% | u
CS(=O)(=O)N1Cc2cc(C(=O)NCC3CC3)nc(-c3cccc(-c4cccnc4)c3)c2[C@@H]1CCO | -22.2% | -16.4%
CCCCc1ccc(N2C(=NC(=O)C3CCCO3)SC3CS(=O)(=O)CC32)cc1 (stereo not given) | -7.5% | -2.5%
COC(=O)c1sccc1NC(=O)CSCCc1ccncc1 | -2.2% | -4.2%
COC(=O)C[C@H](NC(=O)Cn1cnc2c(OCc3ccccc3)ncnc21)C(=O)OC | -4.2% | -13.0%
CCN(C(=O)c1nn(-c2ccc(OC)c(Cl)c2)c(=O)c2c1c1ccccc1n2C)c1cccc(C(F)(F)F)c1 | 4.9% | 1.2%
O=C(NNC(=O)c1cccc2ccccc12)c1ccc2c(c1)OCO2 | -5.2% | -13.4%
C[C@@H]1CN([C@H](C)CO)C(=O)c2c(c3ccccc3n2C)-c2ccccc2CO[C@H]1CN(C)C(=O)Cc1ccccc1 | u | u
CCN(C[C@H]1N[C@@](Cc2ccccc2)(C(=O)OC)[C@H]2C(=O)N(C)C(=O)[C@@H]12)C(=O)COc1ccccc1 | u | -7.0%
O=C(c1ccccc1)c1c[nH]c2ccccc12 | -19.1% | i
CCC1=C(Nc2ccccc2)COC1=O | -8.9% | -3.0%

(list continues)
SMILES | VACV Venus inh | Vaccinia mCherry
Cc1nc2cc(C)c(C)cc2s1 | -8.7% | i
COc1ccccc1CN1CCC(CNS(=O)(=O)c2cc(-c3onc(C)c3C)ccc2OC)CC1 | -26.3% | u
COc1ccc(OC)c(CCNC(=O)Cn2nc(C)c3c(C)n(-c4ccccc4)nc3c2=O)c1 | -15.0% | i
CS(=O)(=O)N1CCc2cc(S(=O)(=O)NCc3ccccc3Cl)ccc21 | -29.9% | -28.1%
COc1cc(/C=C2/C(=N)N3C=CSC3=NC2=O)ccc1OCCCOc1c(C)cccc1C | -12.8% | -20.8%
O=P(/C(=N/O)N1CCOCC1)(N1CCOCC1)N1CCOCC1 | 4.3% | x
CCOC(=O)c1sc(NC(=O)C2=COCCO2)c(C#N)c1C | -26.0% | -10.5%
CCOC(=O)c1c(C)[nH]c(C)c1C(=O)COC(=O)c1nn(CC)c(=O)c2ccccc12 | -8.0% | i
CC12CCC(C(=O)NCc3ccco3)(OC1=O)C2(C)C (stereo not given) | -2.2% | -11.3%
Cc1cn([C@H]2C[C@H](O)[C@@H](/C=C/C(=O)NCCc3ccc(S(N)(=O)=O)cc3)O2)c(=O)[nH]c1=O | -5.3% | 18.5%
O=C(C1=C[C@H](c2ccccc2)C[C@H](OCCCCO)O1)N1CCOCC1 | -11.7% | i
CCC(Sc1nnc2c3ccccc3n(C)c2n1)C(=O)Nc1nnc(C(C)C)s1 (stereo not given) | 1.9% | 11.2%
Cc1ccc(CNC(=O)c2c(-c3ccc(Br)cc3)noc2C)o1 | -21.2% | -5.7%
COC(=O)c1ccc(Cl)c(NC(=O)Cc2ccccc2[N+](=O)[O-])c1 | 0.5% | -12.1%
COC(=O)Nc1ccc(S(=O)(=O)N2CCC(C(=O)N3CCC(C)CC3)CC2)cc1 | -10.7% | -13.4%
CN(C)c1ccc(C=C(c2nnnn2-c2ccccc2)c2nnnn2-c2ccccc2)cc1 | -5.9% | -10.2%
COc1ccccc1NC(=O)C1=C(C)Nc2nc(-c3ccco3)nn2C1c1ccccc1F (stereo not given) | -6.8% | -7.8%
COc1ccc(C(=O)N2CCOC2CNC(=O)C(=O)NCc2ccco2)cc1 (stereo not given) | 8.3% | i
COc1cc2ncnc(NCc3ccc(F)cc3)c2cc1OC | -14.7% | -28.8%
Cc1ccc([C@@H]2[C@@H]3C(=O)N(c4ccccc4)C(=O)[C@@H]3[C@]3(C)C(=O)N(Cc4ccccc4)CC(=O)N23)o1 | -11.7% | -2.1%
Cc1ncc(CO)c(/C=N/N=C/c2ccccc2O)c1O | -10.4% | i
CCOc1ccccc1Nc1cc(C)nc2ccccc12 | -23.6% | u
CCN1C(=O)CC(N2CCC(c3nc4ccccc4[nH]3)CC2)C1=O (stereo not given) | -3.9% | -9.2%
CCc1nc2nc(C)cc(Nc3cccc(C(F)(F)F)c3)n2n1 | 10µM* | x
CC(C)(C)CN1C(=O)C(=O)NC[C@H]1Cc1ccc(O)cc1 | -8.2% | i
CC(C)CNS(=O)(=O)c1ccc(C(=O)Nc2ccc3c(c2)OCO3)cc1 | -7.4% | -4.8%
CCOC(=O)C1=C(C)OC(N)=C(C(=O)OCC)C1c1ccncc1 (stereo not given) | -27.7% | -26.1%
COc1cccc(CN2CCN(C(=O)c3cccs3)CC2)c1OC | -18.3% | x
Nc1cc(=O)[nH]c(SCC(=O)Nc2ccc([N+](=O)[O-])cc2)n1 | 0.7% | -7.6%
CCOc1cc(/C=C2/NC(=O)N(CC(=O)Nc3cccc(C)c3)C2=O)ccc1OC | -16.4% | -8.2%[1.46 µM]
